LANA-H2B inh: blocks KSHV LANA binding to histone H2A/H2B | cell-free LANA-H2A/H2B peptide, fluorescence polarization | 0.6% of 320,000 active | inhibition, % (no concentration beside the values) | Q9QR71; in the data active = inhibition mostly above about 10%, no sharp cut-off; inactive = mostly below about 6.7%;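 also: stock transfer was 7.5 nL into about 10 µL; 0% = median of vehicle wells and 100% = median of positive control wells; one replicate is shown; the record names a cut of 25% in any replicate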
Beta2AR agonist: human beta-2 adrenergic receptor agonism by FAP; P07550; Am2.2-beta2AR cells, FAP receptor internalization, flow cytometry; reference of the scale not given here; response, % (test concentration not listed); 0.43% of 340,000 active; AID 504454;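 active = response above a set limit, near 3 SD of response in nonfluorescent compounds, cut at about 42% in these data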;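 also: stock transfer was 100 nL into about 11 µL; a reference agonist was the positive control; negative values mostly stem from fluorescent compounds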
Target sequence (P07550 whole entry, looked up): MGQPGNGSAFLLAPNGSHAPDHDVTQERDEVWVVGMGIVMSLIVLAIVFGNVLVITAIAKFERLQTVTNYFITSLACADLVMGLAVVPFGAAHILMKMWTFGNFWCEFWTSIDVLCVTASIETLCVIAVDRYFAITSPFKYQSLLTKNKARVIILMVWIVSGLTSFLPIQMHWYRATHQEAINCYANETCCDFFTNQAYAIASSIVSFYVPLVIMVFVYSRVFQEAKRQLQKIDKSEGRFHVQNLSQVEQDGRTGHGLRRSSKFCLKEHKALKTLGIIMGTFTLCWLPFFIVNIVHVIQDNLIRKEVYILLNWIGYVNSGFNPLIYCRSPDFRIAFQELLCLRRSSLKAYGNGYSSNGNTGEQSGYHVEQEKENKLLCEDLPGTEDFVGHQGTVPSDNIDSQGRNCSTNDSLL
HNF4A DNA FP: change in binding of human HNF4 alpha to DNA. activity change, % at 10 µM. HNF4a-FITC DNA binding, fluorescence polarization, 1 h. P41235. 0.3% of 360,000 active. AID 1224865; in the data active = activity change above about 30%, passing the limit was not always enough;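 also: controls were the assay level and a saturating level of protein; the project sought stronger binding though the title names inhibitors; some compounds called inactive have numbers as strong as hits; positive values seem to mean higher polarization but the record does not say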
Target sequence (P41235 whole entry, looked up): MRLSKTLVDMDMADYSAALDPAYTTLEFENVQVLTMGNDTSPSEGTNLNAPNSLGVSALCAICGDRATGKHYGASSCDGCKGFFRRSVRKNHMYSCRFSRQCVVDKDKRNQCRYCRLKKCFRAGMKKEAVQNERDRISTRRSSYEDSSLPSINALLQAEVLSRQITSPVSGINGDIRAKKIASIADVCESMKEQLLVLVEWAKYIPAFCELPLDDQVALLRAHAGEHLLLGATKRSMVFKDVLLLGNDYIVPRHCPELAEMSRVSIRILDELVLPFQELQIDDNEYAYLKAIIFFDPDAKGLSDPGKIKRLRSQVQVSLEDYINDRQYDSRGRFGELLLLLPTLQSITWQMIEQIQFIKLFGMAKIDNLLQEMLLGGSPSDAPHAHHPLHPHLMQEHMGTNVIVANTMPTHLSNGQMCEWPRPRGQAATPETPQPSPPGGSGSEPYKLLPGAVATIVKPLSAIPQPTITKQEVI
UCH37 inh: inhibitors of human deubiquitinating enzyme UCH37; Q9Y5K5; purified proteasome/UCH37, Ub-AMC cleavage fluorescence; inhibition, % (test concentration not listed); 0.33% of 330,000 active; AID 588478;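 active = mean of two replicates above 20%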;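 also: 0% = compound-free wells with enzyme and 100% = wells lacking proteasome; stock transfer was 100 nL into about 20 µL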
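Material: Human UCH37 enzyme supplied as purified proteasome complex | Schedule: 30 min compound-proteasome preincubation then 25 min substrate reaction, room temperature | Detection: AMC fluorescence from Ub-AMC cleavage, excitation 355 nm, emission 460 nm | Benchmarks: Wells without proteasome as full block, compound-free enzyme plus substrate as uninhibited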
ALR H2O2 inh: human ALR oxidase inhibition via reduced H2O2. purified ALR, DTT oxidation, H2O2 HRP-luminol luminescence. inhibition, % (concentration not given with the values). 3.8% of 290,000 active;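 active = mean and each replicate at 75% or more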;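 also: stock transfer was 7.5 nL into about 7.5 µL; 0% = neutral wells and 100% = wells with inactivated enzyme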
E coli growth: inhibitors of Escherichia coli growth | OD600, 23 h; active compounds read low | OD600 absorbance (concentration not given with the values) | 0.21% of 330,000 active | AID 1053175;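 active = OD600 absorbance below the run mean of sample wells minus 3.6 SD, in any replicate, cut at about 0.56 in these data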;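 also: stock transfer was 300 nL into about 60 µL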
FGF22 binding: FGF22 (human) thermal shift binding; calls only at 9.99 µM; recombinant FGF22 thermal shift, SYPRO orange fluorescence; percent of sucrose octasulfate shift, DMSO zero; 1.5% of 340,000 active; AID 651658;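 active = melting point raised past a set limit in the mean and every replicate; three in four hits are not shown here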
Target sequence (Q9HCT0 whole entry, looked up): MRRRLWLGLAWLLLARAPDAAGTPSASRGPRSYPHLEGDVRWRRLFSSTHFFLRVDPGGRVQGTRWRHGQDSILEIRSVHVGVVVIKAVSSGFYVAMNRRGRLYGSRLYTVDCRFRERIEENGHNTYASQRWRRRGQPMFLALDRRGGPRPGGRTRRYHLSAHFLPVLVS
Active calls of the source: *; i = inactive; / = no result given. The list is partial; the hit share may differ from the screen's.

The line under a structure holds: LANA-H2B inh	Beta2AR agonist	HNF4A DNA FP	UCH37 inh	ALR H2O2 inh	E coli growth	FGF22 binding
COc1cccc(CNC(=O)C2CSC3(C)CCC(=O)N23)c1 (centres undefined)
→ 5.3	2	20	3.9	-6	0.65	i
CC(CNC(=O)COc1ccccc1)OC(=O)Nc1ccc(Cl)c(Cl)c1 (centres undefined)
→ -5.2	3	1.9	1.9	-3	0.59	/
Cn1c(N)c(C(=O)COC(=O)COc2ccccc2C#N)c(=O)n(C)c1=O
→ 1.6	8	5.5	-0.6	-8	0.66	i
CCSc1nnc(NC(=O)CC(C)C)s1
→ -0.8	-3	-1.3	1.0	-3	0.64	i
CCOC(=O)C(NC(=O)c1ccccc1)(Nc1nnc(C)s1)C(F)(F)F (centres undefined)
→ 7.6	12	-0.7	0.8	-14	0.7	/
CN(C)S(=O)(=O)c1ccc(C(=O)N2CCCC2c2nc3ccccc3s2)cc1 (centres undefined)
→ 2.9	-9	1.3	-2.2	-4	0.8	/
C=CCN1N=C(c2ccc(NC(=O)c3ccccc3)cc2)CSC1=O
→ 1.4	-4	0.2	2.1	-7	0.66	i
O=C(NC(=S)Nc1nc(-c2ccccc2)cs1)c1cccs1
→ 7.4	-5	-1.3	5.1	0	0.69	/
Cc1ccccc1Oc1cccc(C(=O)/C(C#N)=C/N(C)C)c1
→ 0.0	10	3.1	3.5	48	0.7	/
COc1ccc(C2=NS(=O)(=O)N(C)C(C(=O)N3CCCCC3)=C2)cc1
→ -3.7	-8	-0.4	2.3	-7	0.69	i
CC(C)[C@H](NC(=O)[C@@H]1CSC2c3ccccc3C(=O)N21)C(=O)NCc1ccncc1 (some centres undefined)
→ 5.9	4	1.7	3.1	11	0.65	i
O=C(Nc1cccc(F)c1)N1C2CCC1CC(O)(c1cccnc1)C2 (centres undefined)
→ -1.2	-2	0.8	-1.2	7	0.67	/
O=C(CSc1nnc(-c2ccc(O)cc2)n1Cc1ccccc1)NNC(=O)c1ccc(Br)cc1
→ 1.7	-11	-2.2	-0.3	-3	0.64	/
CC(C)(C)OC(=O)NCc1ccc(NC(=O)c2nc[nH]c2C(=O)NCCN(CCNC(=O)c2[nH]cnc2C(=O)Nc2ccc(CNC(=O)OC(C)(C)C)cc2)CCNC(=O)c2[nH]cnc2C(=O)Nc2ccc(CNC(=O)OC(C)(C)C)cc2)cc1
→ -1.7	-5	4.4	-3.8	3	0.76	/
CCCn1c(SCC(=O)NC(=O)NCc2ccccc2)n[nH]c1=O
→ -2.2	-7	-2.1	4.1	3	0.65	i
O=C(CCl)NCCN1C(=O)S/C(=C\c2cccnc2)C1=O
→ 0.6	-12	12	1.3	-3	0.65	i
CS(=O)(=O)c1ccc(-c2sc3ccccc3c2C#CCCO)cc1
→ 1.2	23	0.7	-2.6	-3	0.7	i
CCOc1ccccc1NC(=O)CN(c1ccc(OC)cc1)S(=O)(=O)c1c(C)noc1C
→ 2.6	32	3.5	3.7	-5	0.68	/
Cc1ccc(NC(=O)CCNS(=O)(=O)c2ccc3c(c2)oc(=O)n3C)c(C)c1
→ 3.8	-11	-1.0	2.3	-1	0.75	i
CC(C)(C)c1ccc2c(c1)OC(C(=O)N/N=C\c1ccc(-c3cccc(C(=O)O)c3)o1)CO2 (centres undefined)
→ 8.2	10	-9.3	/	4	/	i
Cc1cc(Cl)c2cc3ccccc3cc2n1
→ -3.3	6	4.5	-0.6	/	0.67	i
Cc1ccccc1OCc1nc(-c2ccccc2)no1
→ -1.3	-6	-1.1	-2.0	-2	0.72	/
CC[n+]1c(-c2ccccc2)csc1Nc1c(C)n(C)n(-c2ccccc2)c1=O
→ 1.2	-6	-4.2	3.3	99*	0.74	i
Cc1ccc(-n2c(N)c(C(=O)N3CCCCC3)sc2=S)cc1
→ 3.4	-6	1.7	8.7	8	0.75	/
CCOc1ccc(CCNC(=O)C2CCC(=O)N2CCc2ccccc2)cc1OCC (centres undefined)
→ 1.2	-5	2.0	1.1	-11	0.67	/
Nc1ccc(C(=O)OCC(=O)c2cccc([N+](=O)[O-])c2)cc1
→ -15	-1	1.9	0.9	3	0.68	i
Cn1nnnc1SCC(=O)N1CCN(S(=O)(=O)c2ccc(Cl)cc2)CC1
→ 2.0	-3	-0.3	5.1	1	0.69	/
O=C(O)c1ccccn1
→ -2.4	-16	3.5	-1.4	-12	/	i
O=C(NCC1CCCN(Cc2ccc3c(c2)OCCO3)C1)c1ccc2c(c1)OCO2 (centres undefined)
→ -6.7	-2	1.1	1.8	/	0.67	i
CC(C)c1ccc(NC(=O)c2cc(S(=O)(=O)N3CCCC3)c[nH]2)cc1
→ 0.2	-7	0.7	6.6	-15	0.79	i
Cc1cc(=O)oc2cc(NC(=O)Cc3ccccc3[N+](=O)[O-])ccc12
→ -1.7	2	-3.0	-263	0	0.69	i
COC(=O)CNC(=O)CSc1nc2sccc2c(=O)n1-c1ccccc1
→ -6.5	0	9.9	3.3	-3	0.63	i
CCO[C@@H]1c2c(ccc3ccc(=O)oc23)OC(C)(C)[C@H]1O
→ 1.9	-2	1.8	-0.6	-1	0.8	i
CCN(CC)CCCNc1ccc2ncn3c4ccc(O)cc4c(=O)c1c23
→ /	-524	-120	/	/	/	i
COc1cc2c(cc1OC)C(NC(=O)C(F)(F)F)C/C2=N\O (centres undefined)
→ /	1	2.8	/	/	/	i
CCOc1ccccc1N1CC(C(=O)Nc2ccc(S(=O)(=O)N3CCCCC3)cc2)CC1=O (centres undefined)
→ 2.3	5	1.9	1.3	-2	0.71	i
CC1Nc2nc(N(C)C)[nH]c(=O)c2NC1C (centres undefined)
→ /	0	-1.0	-65	-2	0.7	i
CCc1noc(C)c1C(=O)N(C)CC(=O)Nc1ccc(Cl)c(Cl)c1
→ -2.1	-6	2.3	5.1	-4	0.69	i
Cn1c(SCC(=O)c2ccc3c(c2)Cc2ccccc2-3)nnc1-c1cccc(N)c1
→ 0.8	5	4.4	6.0	/	0.75	i
COc1ccccc1NC(=O)/C(N=Nc1ccc(C)c(S(=O)(=O)Nc2ccccc2Cl)c1)=C(\C)O
→ -3.4	3	4.2	4.7	8	0.68	i

Pulled by compound from the list above, 4 records:
The line under a structure holds: LANA-H2B inh	Beta2AR agonist	HNF4A DNA FP	UCH37 inh	ALR H2O2 inh	E coli growth	FGF22 binding
Cn1c(SCC(=O)c2ccc3c(c2)Cc2ccccc2-3)nnc1-c1cccc(N)c1
→ 0.8	5	4.4	6.0	/	0.75	i
CCO[C@@H]1c2c(ccc3ccc(=O)oc23)OC(C)(C)[C@H]1O
→ 1.9	-2	1.8	-0.6	-1	0.8	i
CCOc1ccccc1N1CC(C(=O)Nc2ccc(S(=O)(=O)N3CCCCC3)cc2)CC1=O (centres undefined)
→ 2.3	5	1.9	1.3	-2	0.71	i
COC(=O)CNC(=O)CSc1nc2sccc2c(=O)n1-c1ccccc1
→ -6.5	0	9.9	3.3	-3	0.63	i

Additional compounds
The line under a structure holds: LANA-H2B inh	Beta2AR agonist	HNF4A DNA FP	UCH37 inh	ALR H2O2 inh	E coli growth	FGF22 binding
N#Cc1ccc(-c2cccnc2)nc1SCC(N)=O
→ 0.0	-9	0.8	-22	-4	0.63	i
O=C(N/N=C/c1cccs1)c1ccc2ncccc2c1
→ /	-3	6.5	/	-5	/	i
CC(OC(=O)c1ccco1)C(=O)NC1CCCC1 (centres undefined)
→ 0.6	1	2.8	0.1	-7	0.7	i
O=C(Nc1ccccc1N1CCOCC1)c1cc2c(s1)CCCCC2
→ 7.6	-1	4.8	0.0	19	0.7	i
O=C(CCSCc1ccc(Cl)cc1)NCc1cccs1
→ 0.4	3	1.8	0.3	-11	0.69	i
CCCCc1nc(SCC(=O)Nc2nnc(CCCC)s2)n[nH]1
→ -0.8	-4	3.2	4.1	-2	0.67	i
O=C(NC1CCCCC1)C(c1ccccn1)N(C(=O)c1csnn1)C1CC1 (centres undefined)
→ -9.9	-12	-0.1	1.2	-3	0.69	i
N/C(=N\OC(=O)C12CC3CC(CC(C3)C1)C2)c1ccncc1
→ -3.4	2	0.3	3.3	/	0.67	i
O=C(NN1CC(C(=O)OCc2ccc(Br)cc2)CC1=O)c1ccccc1 (centres undefined)
→ 0.1	12	-4.8	2.5	-5	0.69	i
CCOc1ccc2c(=O)c(Oc3ccccc3OCC)coc2c1
→ 5.5	-3	2.8	3.5	4	0.69	/
COc1ccc(-n2c(C)cc(/C=C3\C(=N)N4N=C(CC(=O)N5CCOCC5)SC4=NC3=O)c2C)c(OC)c1
→ 5.1	-2	14	6.9	5	0.7	i
N#Cc1ccc(-c2nc3cc(Cl)ccc3c(=O)n2O)cc1
→ 8.0	-12	0.5	2.5	3	0.63	i
CCOC(=O)N1CCC(NC(=O)c2cc3c(C)nc4ccccc4c3o2)CC1
→ -3.1	-3	-0.3	1.7	-7	0.68	i
S=c1[nH]nc(Cc2ccccc2)n1-c1ccccc1
→ -3.6	-4	-0.8	4.2	87*	0.68	/
Cc1cccc(N2C(=O)NC3(CCCCC3)C2=O)c1
→ 6.8	-8	-3.6	4.2	/	0.72	/
Cc1ccn2c(=O)nc(SCC(=O)Nc3cccc4ccccc34)nc2c1
→ -4.4	5	-3.1	6.5	59	0.67	i
CC1CN(c2nc3ccccc3nc2NS(=O)(=O)c2ccccc2)CC(C)O1 (centres undefined)
→ -4.6	0	2.5	2.9	15	0.7	/
NC(=O)C1CCN(C(=O)c2ccccc2SCC(=O)NCC2CCCCC2)CC1
→ 2.3	0	-2.0	-1.6	0	0.68	i
COc1cccc(C(=O)N2N=C(c3cccc(OC)c3)CC2(O)C(F)(F)F)c1 (centres undefined)
→ 4.8	-9	-1.0	0.0	-3	0.7	/
Cc1ccc(Nc2nc(-c3ccc(S(=O)(=O)N4CCCC4)cc3)cs2)cc1C
→ -0.8	-3	3.1	-100	/	0.75	/
Cc1cc(C)c2c(=O)[nH]c(SCC(=O)c3ccc(F)c(C)c3)nc2n1
→ -2.6	-2	4.4	2.0	19	0.67	i
O=c1c2c3n(c(=S)nc2[nH]n1-c1ccccc1)CCCCC3
→ 4.1	-6	3.5	7.6	53	0.74	/
COc1ccc(-c2csc(NC(=O)CCS(=O)(=O)c3ccccc3)n2)c(OC)c1
→ -5.5	2	4.2	4.3	-9	0.71	i
Cc1nc2ccccc2c(=O)n1/N=C/C=C/c1ccccc1
→ -7.1	-5	2.8	/	-3	/	i
CC1CC(NNC(=O)c2ccccc2)=Nc2ccccc2N1C (centres undefined)
→ 0.1	-2	-0.8	2.3	13	0.69	/
CCNc1c(NCC)c(=O)c1=O
→ -0.4	5	0.8	1.8	-17	0.66	i
CN(C)S(=O)(=O)c1ccc(Cl)c(NC(=O)COC(=O)C2CSC3(C)CCC(=O)N23)c1 (centres undefined)
→ -4.0	2	2.4	0.7	-7	0.69	/
Cn1c(SCCS(=O)(=O)c2ccc(Cl)cc2)nnc1-c1ccccc1
→ 0.3	-1	0.5	3.7	-4	0.67	/
CN(C(=O)c1coc(=O)c2ccccc12)c1ccc(F)cc1
→ -2.7	0	1.9	0.6	5	0.72	/
Cc1ccc(C)n1NC(=O)c1ccc(O)cc1
→ -12	-4	3.6	3.8	20	0.69	/
Cc1ccc(C(=O)N2CCN(c3ccccn3)CC2)cc1Cl
→ 0.2	-6	4.1	4.6	-2	0.7	i
NC(=O)NC(=O)COC(=O)CCCCCNS(=O)(=O)c1ccc2c(c1)OCCO2
→ -4.5	0	1.2	1.2	/	0.65	i
COc1cc(NC(=O)COC(=O)c2nc3nc(C)cc(C)n3n2)cc(OC)c1
→ 0.5	-1	-0.3	1.9	-18	0.69	/
O=C1CN(C(=S)Nc2ccccc2Cl)CCN1
→ -0.9	5	1.9	0.5	-27	0.67	i
CN(C)C(=O)c1ccc(Cl)cc1[N+](=O)[O-]
→ 6.7	2	2.6	2.0	0	0.69	i
COc1ccc(NC(=O)c2ccc3c(SCC(=O)O)c4c(nc3c2)CCCC4)cc1Cl
→ 2.9	/	/	2.3	-7	0.65	i

Source: PubChem (several laboratories)
